HNF4A DNA FP: change in binding of human HNF4A to DNA, primary screen, biochemical, fluorescence polarization, FITC-DNA; Hepatocyte nuclear factor 4-alpha (Homo sapiens), P41235; activity change, % at 10 µM; 1 h; 360,000 compounds, 0.3% hits; in the data active = activity change above about 30%, passing the limit was not always enough;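 also: controls were the assay level and a saturating level of protein; the project sought stronger binding though the title names inhibitors; some compounds called inactive have numbers as strong as hits; positive values seem to mean higher polarization but the record does not say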
FGF22 binding: binders of human FGF22 protein, primary screen, FGF22 synaptogenesis inhibitor project, biophysical, thermal shift, single point. Fibroblast growth factor 22 (Homo sapiens), Q9HCT0. recombinant FGF22 thermal shift, SYPRO orange fluorescence; percent of sucrose octasulfate shift, DMSO zero. calls only at 9.99 µM. 340,000 compounds, 1.5% hits;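 active = melting point raised past a set limit in the mean and every replicate; three in four hits are not shown here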
Target sequence (Q9HCT0 whole entry, looked up): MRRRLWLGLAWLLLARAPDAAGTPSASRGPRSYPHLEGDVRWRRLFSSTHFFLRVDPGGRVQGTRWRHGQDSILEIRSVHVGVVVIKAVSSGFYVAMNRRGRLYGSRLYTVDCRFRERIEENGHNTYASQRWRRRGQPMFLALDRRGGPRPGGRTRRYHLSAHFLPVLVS
E coli growth: E. coli growth inhibition, primary screen, OD600 | OD600 absorbance (no concentration beside the values) | 330,000 compounds, 0.21% hits | AID 1053175, 2014 | Escherichia coli growth, 23 h; active compounds read low;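 active = OD600 absorbance below the run mean of sample wells minus 3.6 SD, in any replicate, cut at about 0.56 in these data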;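 also: stock transfer was 300 nL into about 60 µL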
Beta2AR agonist: beta2AR agonists driving receptor internalization, primary screen, cell-based, FAP fluorogen, flow cytometry. Beta-2 adrenergic receptor (Homo sapiens), P07550. Am2.2-beta2AR cells; reference of the scale not given here. response, % (no concentration beside the values). 340,000 compounds, 0.43% hits. AID 504454, 2011;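 active = response above a set limit, near 3 SD of response in nonfluorescent compounds, cut at about 42% in these data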;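 also: stock transfer was 100 nL into about 11 µL; a reference agonist was the positive control; negative values mostly stem from fluorescent compounds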
Target sequence (P07550 whole entry, looked up): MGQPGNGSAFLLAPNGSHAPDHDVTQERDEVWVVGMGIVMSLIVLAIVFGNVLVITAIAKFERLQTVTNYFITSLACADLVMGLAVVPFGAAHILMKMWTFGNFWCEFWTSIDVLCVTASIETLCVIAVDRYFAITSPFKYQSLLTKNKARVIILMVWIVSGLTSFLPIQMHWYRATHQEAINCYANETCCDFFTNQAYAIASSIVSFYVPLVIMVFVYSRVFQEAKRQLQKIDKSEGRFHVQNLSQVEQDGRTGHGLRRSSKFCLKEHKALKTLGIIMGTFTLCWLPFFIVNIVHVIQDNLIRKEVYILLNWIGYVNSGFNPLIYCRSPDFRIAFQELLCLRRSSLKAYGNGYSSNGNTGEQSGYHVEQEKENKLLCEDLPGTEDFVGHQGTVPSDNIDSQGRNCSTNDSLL
ALR inh: inhibitors of human ALR sulfhydryl oxidase, primary screen, biochemical, H2O2 detection, HRP-luminol luminescence, single point; FAD-linked sulfhydryl oxidase ALR (Homo sapiens), P55789; purified ALR, DTT oxidation; inhibition, % (no concentration beside the values); 290,000 compounds, 3.8% hits; AID 485317, 2010;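 active = mean and each replicate at 75% or more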;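 also: stock transfer was 7.5 nL into about 7.5 µL; 0% = neutral wells and 100% = wells with inactivated enzyme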
UCH37 inh: inhibitors of human UCH37 deubiquitinase, primary screen, biochemical, Ub-AMC cleavage, fluorescence. Ubiquitin carboxyl-terminal hydrolase isozyme L5 (Homo sapiens), Q9Y5K5. purified proteasome/UCH37. inhibition, % (concentration not given with the values). 330,000 compounds, 0.33% hits. AID 588478, 2011;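 active = mean of two replicates above 20%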;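 also: 0% = compound-free wells with enzyme and 100% = wells lacking proteasome; stock transfer was 100 nL into about 20 µL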
Target sequence (Q9Y5K5 whole entry, looked up): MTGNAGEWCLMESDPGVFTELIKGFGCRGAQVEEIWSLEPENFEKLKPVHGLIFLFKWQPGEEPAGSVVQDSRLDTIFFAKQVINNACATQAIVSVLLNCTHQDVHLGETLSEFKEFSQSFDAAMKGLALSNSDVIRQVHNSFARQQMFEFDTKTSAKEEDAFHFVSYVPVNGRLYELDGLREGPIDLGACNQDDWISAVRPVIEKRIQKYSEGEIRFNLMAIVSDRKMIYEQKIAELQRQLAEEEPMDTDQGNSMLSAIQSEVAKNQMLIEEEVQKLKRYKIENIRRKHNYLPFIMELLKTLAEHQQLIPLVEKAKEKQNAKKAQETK
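Material: human UCH37 enzyme supplied as purified proteasome complex. Measure: % inhibition of Ub-AMC cleavage fluorescence. Medium: pH 7.4 Tris-HCl (50 mM) with ovalbumin, ATP-MgCl2, DTT. Times: 30 min preincubation with enzyme, 25 min cleavage at room temperature. Detection: AMC fluorescence intensity at 355/460 nm.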
rRNA inh HTS: reduced GFP signal of wild-type E. coli, primary screen, bacterial rRNA inhibitor project, GFP/RFP fluorescence, OD600, single point; E. coli WT GFP vs humanized-ribosome RFP mutants, 24 h; active compounds read low; DMSO median 0, no signal -100; 350,000 compounds, 1.6% hits; GFP signal change (wild-type ribosome), % (test concentration not listed);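 active = significant combined selectivity score with lowered wild-type GFP, culture density cut under 30%, mutant RFP and density less affected; inactive = any of these conditions unmet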; also: one replicate is shown; some compounds called inactive have numbers as strong as hits
rRNA inh HTS OD600: recorded beside rRNA inh HTS, whose call it bears; OD600 change, %; measured here: OD600 growth;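 optical density of the mix in the first replicate; 0 = DMSO median and -100 = no signal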
rRNA inh HTS RFP: also measured in rRNA inh HTS; calls as there; RFP signal change, %; measured here: RFP humanized mutant strains;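 first replicate; 0 = DMSO median and -100 = no signal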
Numbers without * were called inactive; i = inactive; nt = not tested or not shown; & = joins results of further samples.

SMILES	HNF4A DNA FP	FGF22 binding	E coli growth	Beta2AR agonist	ALR inh	UCH37 inh	rRNA inh HTS	rRNA inh HTS OD600	rRNA inh HTS RFP
CNC(=S)NNC(=O)c1cccn(Cc2cccc(Cl)c2)c1=O	2.6	nt	0.74	3	28	5.4	nt	nt	nt
Cc1ccc(CCNC(=O)CN(c2cc(C)cc(C)c2)S(=O)(=O)c2c(C)noc2C)cc1	-0.5	i	0.69	-1	-20	-0.6	8	10	-2.6
Cc1c(C)c2ccc(OCC(=O)NCCc3c[nH]c4ccccc34)c(C)c2oc1=O	3.7	i	0.7	-20	nt	1.8	nt	nt	nt
Cc1cc2nc(N3CCN(C(=O)c4ccco4)CC3)sc2cc1C	-4.4	i	0.63	1	-6	3.6	8	7	2.3
COc1ccc(N2Cc3ccccc3C2=NC(=O)c2cccc([N+](=O)[O-])c2)cc1	4.2	i	0.68	-5	nt	4.9	-23	-25	-0.7
Cn1cnnc1SCCOc1ccc(Cl)cc1	-1.1	i	0.72	-4	-18	0.6	0	0	0.9
Cc1ccc(-n2cnc3ncnc(-c4ccccc4)c32)cc1	-2.0	i	0.68	5	-5	3.7	16	17	2.2
O=[N+]([O-])c1ccc(C(=S)N2CCCC2)cc1	-3.0	i	0.66	-2	-3	-2.3	8	4	-7.0
O=C(CNC(=O)c1ccco1)OCc1ccccc1F	-1.3	i	0.69	3	-1	0.9	3	4	-3.3
CN(C)CCCN(C(=O)c1ccco1)c1nc2c(F)cccc2s1	5.2	i	0.69	20	-6	2.8	1	1	-4.2
O=C(Nc1cccc(S(=O)(=O)NC2=NCCC2)c1)c1cnc(Cl)c(Cl)c1	2.5	i	0.66	1	-7	5.0	nt	nt	nt
O=C(Cc1ccccc1)NNC1=NS(=O)(=O)c2ccccc21	-6.5	i	0.66	7	2	0.5	14	15	1.2
O=C(Nc1ccc(F)cc1)N1CCC(c2nc3c(nnn3Cc3cccc(Cl)c3)c(=O)[nH]2)CC1	2.2	nt	0.65	13	nt	3.5	nt	nt	nt
C[C@@H]1CN([C@H](C)CO)C(=O)CCCn2cc(nn2)CO[C@H]1CN(C)S(=O)(=O)c1ccc(C#N)cc1	4.1	i	nt	nt	nt	nt	6&0	10&3	-3.2&-1.3
O=C(O)c1ccc(S(=O)(=O)N(CCc2ccccc2)Cc2ccc(Cl)cc2)cc1	-4.7	i	0.69	4	nt	1.9	-50	-77	-18
O=C(COC(=O)C(Cc1ccccc1)NC(=O)c1cccs1)NCc1ccccc1 (stereo unspecified)	0.5	i	0.66	21	nt	5.2	-9	-3	7.4
Cc1ccc(N=Cc2ccc(N(C)C)cc2)cc1	3.4	nt	0.74	1	-18	11	nt	nt	nt
CC(C)C[C@H](NC(=O)c1nc[nH]c1C(=O)N1CCN(C(=O)OC(C)(C)C)CC1)C(=O)OCc1ccccc1	-5.4	i	nt	4	-31	-1.2	0	-5	7.4
COc1ccc(C(=O)CCC(=O)Nc2cc(Cl)c(O)c(Cl)c2)cc1	1.0	i	0.72	5	28	0.1	2	3	-1.3
Cc1c(NC(=O)CSc2ccccc2F)c(=O)n(-c2ccccc2)n1C	-1.3	i	0.69	-3	-9	-0.5	5	7	-1.5
O=C(Nc1ccc(CN2CCOCC2)cc1)c1ccc(Br)o1	0.7	i	0.6	2	7	3.0	3	7	2.1
O=C(Nc1nnc(S(=O)(=O)N2CCCC2)s1)c1ccccc1F	0.3	i	0.77	9	3	10	-13	-35	-5.0
COc1ccccc1N1CCN(C(=O)/C=C/c2ccc(C)cc2)CC1	4.3	nt	0.69	1	4	1.3	nt	nt	nt
Cc1ccc(C)c(S(=O)(=O)Nc2ccccc2C(=O)Nc2ccccc2N2CCOCC2)c1	-2.8	nt	0.78	14	-19	-3.3	nt	nt	nt
O=C(CSc1nnc2scc(-c3ccc(F)cc3)n12)NCc1ccco1	-0.7	nt	0.64	-16	-11	0.0	nt	nt	nt
O=C(CCN1C(=O)c2ccc([N+](=O)[O-])cc2C1=O)Nc1ccc(O)cc1C(=O)O	-5.4	i	0.71	-4	-26	3.9	21	13	-0.8
CC1C(=O)N2CCCc3cc(NC(=O)C4CCCCC4)cc1c32 (stereo unspecified)	1.4	i	0.69	-7	-18	4.5	-1	0	-1.7
Cc1ccc(C(=O)O/N=C2\CCCc3ccccc32)cc1	4.7	nt	nt	8	2	nt	nt	nt	nt
O=C(CSc1nnc(CNC(=O)c2ccccc2)o1)Nc1nccs1	-0.3	i	0.73	-4	38	3.7	9	8	3.8
CC(C)CC(=O)NCCc1ccncc1	2.2	nt	0.7	-2	0	0.4	nt	nt	nt
O=C(/C=C/c1ccccc1)N/C(=C/c1ccccc1)C(=O)NCCCO	-0.2	i	0.64	2	-1	2.3	5	4	1.7
COC(=O)CCc1c(C)[nH]c(C(=O)OCc2ccccc2)c1C	-2.1	nt	0.69	-3	nt	4.4	nt	nt	nt
CC(C)C[C@H]1CN=C(Nc2ccccc2)N1CCCC1CCCCC1	0.1	i	nt	1	4	2.2	-57	-79	-29
Cc1ccc(C(=O)OCC(=O)Nc2cccc(S(=O)(=O)N3CCCCC3)c2)s1	1.1	i	nt	nt	nt	nt	1	-9	-1.8
Cc1cc(Oc2cccc3c2S(=O)(=O)N(C2CCCC2)CC(COCc2ccccc2)O3)cc(C)c1C (stereo unspecified)	0.4	i	nt	9	nt	nt	6	5	1.2
O=C(NCc1cccs1)C1CCCN(C(=O)Nc2ccc(F)cc2)C1 (stereo unspecified)	-0.5	i	0.7	-2	-1	1.6	2	4	-3.2
COc1cccc(CN2CC(C(=O)NCc3ccc(C)c(F)c3)CCC2=O)c1 (stereo unspecified)	11	i	0.7	-1	-4	-0.4	7	5	0.2
COC(=O)c1[nH]c2ccc(F)cc2c1NS(=O)(=O)c1ccc(OC)cc1OC	1.1	nt	0.7	7	21	4.8	nt	nt	nt
COc1ccc(Cl)cc1Cn1c(C)c(C(=O)NCc2ccccc2C(F)(F)F)sc1=O	4.4	i	nt	nt	nt	nt	-6	-1	-4.3
O=S(=O)(Cc1ccccc1Cl)Nc1ccccn1	3.3	nt	0.71	11	0	-8.2	nt	nt	nt
CN(CC(=O)Nc1ccccc1Cl)C(=O)CSc1nnc(-c2ccco2)n1C	1.0	i	0.68	-6	0	3.2	-9	11	2.4
Cc1ccc(CNC(=O)c2ccc(N3CCC4(CC3)CC(c3ccccc3)=NO4)c(NC(=O)c3c(Cl)cccc3Cl)c2)cc1	4.8	i	0.69	-2	-3	3.0	16	10	3.9
CCOc1ccccc1NC(=O)Cn1c(=O)oc2cc(Cl)ccc21	1.4	i	0.64	1	-10	1.6	-3	2	-1.5
O=C(C[C@@H]1C[C@@H]2c3cc(NC(=O)C4CCOCC4)ccc3O[C@@H]2[C@H](CO)O1)NCc1ccccn1	0.0	i	nt	nt	nt	nt	4	-5	0.2
O=C(C#Cc1ccccc1)NCc1ccccc1F	-3.2	i	0.66	-1	5	0.4	6	-2	2.2
O=C(NC(=S)Nc1ccc2c(c1)OCCO2)c1ccccc1F	-7.2	nt	0.69	-2	0	1.7	-29	-25	-6.3
CNC(=O)N(O)C1N(/N=C/c2cccs2)C(=S)SC1(C)C (stereo unspecified)	-2.0	i	nt	3	-5	nt	-2	0	-2.6
CC(C)(C)c1ccc(-c2nnc(SCC(=O)Nc3sc4c(c3C#N)CCCC4)o2)cc1	-0.5	i	0.73	-2	3	3.8	3	-13	9.3

Record cards, as listed above. Order of values: HNF4A DNA FP, FGF22 binding, E coli growth, Beta2AR agonist, ALR inh, UCH37 inh, rRNA inh HTS, rRNA inh HTS OD600, rRNA inh HTS RFP
CC(C)(C)c1ccc(-c2nnc(SCC(=O)Nc3sc4c(c3C#N)CCCC4)o2)cc1 in the list: -0.5, i, 0.73, -2, 3, 3.8, 3, -13, 9.3
COC(=O)c1[nH]c2ccc(F)cc2c1NS(=O)(=O)c1ccc(OC)cc1OC in the list: 1.1, nt, 0.7, 7, 21, 4.8, nt, nt, nt
O=C(C#Cc1ccccc1)NCc1ccccc1F in the list: -3.2, i, 0.66, -1, 5, 0.4, 6, -2, 2.2
CCOc1ccccc1NC(=O)Cn1c(=O)oc2cc(Cl)ccc21 in the list: 1.4, i, 0.64, 1, -10, 1.6, -3, 2, -1.5
O=S(=O)(Cc1ccccc1Cl)Nc1ccccn1 in the list: 3.3, nt, 0.71, 11, 0, -8.2, nt, nt, nt

Carrying on.
SMILES	HNF4A DNA FP	FGF22 binding	E coli growth	Beta2AR agonist	ALR inh	UCH37 inh	rRNA inh HTS	rRNA inh HTS OD600	rRNA inh HTS RFP
CS(=O)(=O)c1ccc(C(=O)OCC(=O)NNC(=O)COc2ccc(Cl)cc2)cc1	2.6	i	0.69	-7	-2	-0.6	5	11	-0.4
COc1ccc(N2C(=S)NC3c4cc(Cl)ccc4OC2(C)C3C(=O)N(C)C)cc1 (stereo unspecified)	0.8	i	0.68	1	nt	-0.5	2	-9	-8.1
O=C(CCC(=O)N1CCOc2ccccc21)Nc1ccccc1Cl	-1.6	i	0.77	3	-23	2.2	3	-4	2.5
CC(O)(c1cccnc1)c1nc(-c2ccc3c(c2)OCO3)cs1 (stereo unspecified)	-2.1	i	nt	nt	nt	nt	5	-21	-1.6
O=C(NC1CCCCC1)N1CCN(S(=O)(=O)c2ccc(F)cc2)CC1	1.9	nt	nt	0	-3	nt	22	24	-1.5
Cc1csc(NC(=O)COc2ccc3c(C)cc(=O)oc3c2)n1	-1.3	i	0.68	-12	-2	-6.3	14	3	1.2
Cc1cc(NC(=O)CCCN2C(=O)/C(=C/c3cccs3)SC2=S)no1	0.5	nt	0.68	6	-2	7.4	nt	nt	nt
Cc1cccc(NC(=O)NNC(=O)c2cc(-c3ccccc3Cl)nc3ccccc23)c1	-0.1	nt	0.8	-1	nt	7.4	nt	nt	nt
COc1c2ccccc2nn1C(C)C	1.2	i	nt	nt	nt	nt	23	19	3.4
CN1CCN(C(=S)c2cn(CCOc3ccccc3F)c3ccccc23)CC1	2.3	i	0.71	-2	-7	2.5	-37	-45	-3.5
Clc1ccc(SCCCN2CCCCC2)cc1	2.9	i	0.69	5	2	5.9	7	2	-9.7
CCOc1ccc(CNC(=O)Nc2ccccc2)cc1	0.6	i	0.64	-6	nt	1.9	2	-4	-0.7
CC(C)[C@H](NC(=O)c1ccco1)C(=O)Nc1ccc(OC(F)F)cc1	1.2	i	0.67	1	-11	4.9	-9	-5	-1.2
COc1cc2c(cc1OC)C(c1cc3cc4c(cc3[nH]c1=O)OCO4)N(C(=O)C(C)C)CC2 (stereo unspecified)	-1.6	i	0.69	-3	-15	-51	11	11	4.9
CC1CCN(C(=O)c2ccc(NC(=O)c3cccs3)cc2)CC1	-0.2	i	0.7	-13	1	4.7	-2	-8	0.2
Cc1cc(NC(=O)CSc2nnc(CNC(=O)c3ccc(C(C)(C)C)cc3)o2)no1	1.2	i	0.74	-7	-15	3.1	3	10	1.0
CCC[C@H]1CN(c2ccccc2)C(=O)[C@@H]1CC(=O)Nc1ccccc1	-5.3	i	nt	nt	nt	nt	-18	-21	-9.4
COc1ccc(C(=O)Nc2ccc(NC(=O)c3cnccn3)cn2)cc1	3.7	i	0.7	2	-11	-6.7	19	9	1.9

Source: PubChem (several laboratories)

A portion of the library, so the mix of outcomes need not match the whole.
